Bioassay records from PubChem BioAssay.
MT1-MMP promoter: inhibitors of MT1-MMP promoter transcription, cell-based, luciferase reporter, luminescence (AID 618); calls from a first round at 10 µM; hits with a dose series show EC50 in µM; MT1-MMP promoter luciferase reporter cells, luminescence; 87,000 compounds, 0.62% hits;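 active = over half of the reporter light lost at 10 µM or EC50 under 50 µM; inactive = the rest and hits that failed the dose series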;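 note: actives suppress MT1-MMP promoter-driven transcription so potencies describe inhibitors; HT1080 fibrosarcoma cells; overnight exposure; toxic or luciferase-blocking compounds were not removed from the actives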
Hsc70 ATP site: Hsc70 inhibitors, probe displacement, primary screen, biochemical, fluorescence polarization (AID 568). 83,000 tested, under 10 active. displacement, % at 20 µM, or IC50 in µM where a hit was titrated. Hsc70 fluorescence polarization, probe displacement; higher % means a stronger effect; strong numbers were not always called active;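 active = displacement above 50% without optical interference and an IC50 on retest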;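 note: ATPase domain with a fluorescein-tagged ATP probe; 0% = vehicle and 100% = excess ADP; read after one hour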
WNV NS2B-NS3 inh: inhibitors of WNV NS2B-NS3 protease, primary screen, biochemical, fluorogenic substrate | fluorogenic substrate Ex360/Em465; active compounds read low | AID 577, 2007 | z-score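 (tested at a level between 10 and 100 µM)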 | Genome polyprotein (West Nile virus), P06935 | 65,000 compounds, 0.18% hits;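 active = z-score at -3 or under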;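 note: score is relative to mean and spread of the compound wells of a plate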
Target sequence (P06935 1371-1501 limits assumed): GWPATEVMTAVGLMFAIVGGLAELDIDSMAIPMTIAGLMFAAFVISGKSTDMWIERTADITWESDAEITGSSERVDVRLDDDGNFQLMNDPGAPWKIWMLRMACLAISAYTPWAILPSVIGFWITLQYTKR
Target sequence (P06935 1502-1679 limits assumed): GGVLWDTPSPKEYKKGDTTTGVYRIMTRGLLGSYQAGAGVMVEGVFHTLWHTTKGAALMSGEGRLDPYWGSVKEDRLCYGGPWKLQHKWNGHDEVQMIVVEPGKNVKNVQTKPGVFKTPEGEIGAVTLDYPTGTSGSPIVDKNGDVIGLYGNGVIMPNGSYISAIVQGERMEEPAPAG
The depositor's hits bear a star; i = inactive; . = not tested or not shown; + = active, no number.

SMILES	MT1-MMP promoter	Hsc70 ATP site	WNV NS2B-NS3 inh
CN1CCN(Cc2c(O)ccc3occ(C(=O)c4ccccc4)c23)CC1	i	1.0%	-0.33
CC(=O)CCC(=O)NCCc1ccccc1F	i	-6.8%	0.12
Cc1ccc(NC(=O)c2cccc(Cl)c2)nc1	i	-2.8%	0.54
O=C(C1CCCN(S(=O)(=O)c2cccnc2)C1)N1CCn2c1nc1ccccc12 (stereo unspecified)	i	5.4%	0.21
Cc1ccc(C)c(NS(=O)(=O)c2c(C)nn(C)c2C)c1	i	-3.3%	-0.14
O=C(CN1CCN(c2ccccn2)CC1)Nc1ccc(F)cc1	i	3.6%	.
COc1ccccc1NC(=O)CN(C)S(=O)(=O)c1cc(C)ccc1OC	i	-1.6%	.
CCC(C)Sc1nc(C)nc2c1c(=O)n(C)c(=O)n2C (stereo unspecified)	i	-2.2%	-0.21
COc1ccc(C2C(C(=O)c3ccco3)=C(O)C(=O)N2Cc2cccnc2)cc1OC (stereo unspecified)	i	3.9%	0.42
Cc1ccc2nc(NC3=NCN(Cc4ccc5c(c4)OCO5)CN3)nc(C)c2c1	i	1.3%	0.15
Nn1c(COc2ccccc2)nnc1SC(F)F	i	2.0%	-1.7
O=C(CCS(=O)(=O)Cc1ccccc1F)NCCCN1CCCCC1	i	0.6%	-1.1
CCCc1nccn1S(=O)(=O)c1cc(OC)ccc1OC	i	-6.1%	.
O=C(CNCC1CCCO1)Nc1ccc(N2CCCCCC2)cc1 (stereo unspecified)	i	-3.7%	-0.36
CC(C)NC(=O)c1ccc(-c2cccc(C(F)(F)F)c2)o1	i	-8.1%	.
Cc1cccc(N(C)S(=O)(=O)c2ccc3c(c2)CCC(=O)N3)c1	i	-4.4%	-0.5
COc1ccc(-n2ncc3c(N4CCC(C(N)=O)CC4)ncnc32)cc1	i	-9.5%	0.33
Cc1cc(C)c2c(C)c(C(=O)NCc3ccncc3)oc2c1	i	3.1%	.
CC(C)OC(=O)CCC1(C(=O)O)CCC(=O)NC1 (stereo unspecified)	i	40%	1.1
CC(=O)c1ccccc1NS(=O)(=O)c1c(C)nn(-c2ccccc2)c1C	i	-4.2%	1.2

Sorted by SMILES length (highest first): part of the list above.
SMILES	MT1-MMP promoter	Hsc70 ATP site	WNV NS2B-NS3 inh
Cc1ccc2nc(NC3=NCN(Cc4ccc5c(c4)OCO5)CN3)nc(C)c2c1	i	1.3%	0.15
CC(=O)c1ccccc1NS(=O)(=O)c1c(C)nn(-c2ccccc2)c1C	i	-4.2%	1.2
COc1ccccc1NC(=O)CN(C)S(=O)(=O)c1cc(C)ccc1OC	i	-1.6%	.
Cc1cc(C)c2c(C)c(C(=O)NCc3ccncc3)oc2c1	i	3.1%	.
Cc1ccc(NC(=O)c2cccc(Cl)c2)nc1	i	-2.8%	0.54

The listing continues.
SMILES	MT1-MMP promoter	Hsc70 ATP site	WNV NS2B-NS3 inh
CC1CCCCN1CCNC(=O)C1CCN(S(=O)(=O)N2CCCCC2)CC1 (stereo unspecified)	i	-3.0%	0.59
O=C(CCc1ccccc1)n1nc(-c2ccccc2)nc1NCc1ccco1	i	-2.8%	0.29
CC1=CC(C)(C)N(S(=O)(=O)c2ccc(C)cc2)c2cc(C)ccc21	+	1.8%	.
CC(C)(C)C(=O)CSc1nccc(=O)[nH]1	i	3.1%	-0.87
CCC(=O)N1CCc2cc(S(=O)(=O)CCC(=O)O)ccc21	i	-3.3%	-0.21
CC1(C)Cc2ccccc2-c2c1c(=O)n(Cc1ccccc1)c1nnnn21	i	-3.1%	.
COc1ccccc1N1CCN(c2cc(=O)n(-c3ccccc3Cl)c(=O)[nH]2)CC1	i	-4.3%	-0.62
COc1ccc(CCN2C(=NC(=O)CCC(=O)O)SC3CS(=O)(=O)CC32)cc1OC (stereo unspecified)	i	-3.1%	0.69
Cc1ccc(NCc2nnc(SCC(=O)c3ccccc3)o2)c(C)c1	i	-0.6%	0.29
Cc1ccnc(SCCn2c(N3CC(C)CC(C)C3)nc3c2c(=O)n(C)c(=O)n3C)n1 (stereo unspecified)	i	-2.7%	-0.86
COc1ccc(Cc2nnc(NC(=O)c3c(-c4ccccc4)noc3C)s2)cc1	i	-5.8%	-0.74
CCCCC(c1nnnn1Cc1ccco1)N1CCN(C(=O)c2ccco2)CC1 (stereo unspecified)	i	-0.2%	-0.99
CCC(CC)c1nc(NCCC(=O)O)c2ccccc2n1	i	-5.0%	-0.72
CCOc1ccc(OCC(=O)N2CCOCC2)cc1	i	3.9%	0.79
Cc1cc(NC(=O)CSc2nc3ccsc3c(=O)n2NC(=O)c2ccccc2)no1	i	-6.2%	0.57
CC1CCCCN1S(=O)(=O)c1ccc2c(c1)CCN2C(=O)C1CCC1 (stereo unspecified)	i	-2.6%	-0.23
COC(=O)C1C(O)=C(C=NC2CCCCC2)C(=O)CC1(C)C (stereo unspecified)	i	-3.1%	-1.4
Cc1ccc(SC(C)c2nc(-c3ccncc3)no2)cc1 (stereo unspecified)	i	-3.4%	0.15
O=C(Cn1c(=O)oc2cc(S(=O)(=O)N3CCCCCC3)ccc21)NC1CCCCCCC1	i	3.0%	0.97
O=C1CSC(c2ccccn2)N1Cc1cn2ccccc2n1 (stereo unspecified)	i	-0.2%	-0.03

One compound at a time (already shown).
`Cc1ccc(SC(C)c2nc(-c3ccncc3)no2)cc1` (stereo unspecified) is entered as MT1-MMP promoter: i; Hsc70 ATP site: -3.4%; WNV NS2B-NS3 inh: 0.15
`Cc1cc(C)c2c(C)c(C(=O)NCc3ccncc3)oc2c1` is entered as MT1-MMP promoter: i; Hsc70 ATP site: 3.1%; WNV NS2B-NS3 inh: .
`COc1ccc(C2C(C(=O)c3ccco3)=C(O)C(=O)N2Cc2cccnc2)cc1OC` (stereo unspecified) is entered as MT1-MMP promoter: i; Hsc70 ATP site: 3.9%; WNV NS2B-NS3 inh: 0.42

Further entries.
SMILES	MT1-MMP promoter	Hsc70 ATP site	WNV NS2B-NS3 inh
CCOc1ccc(NC(=O)CN(Cc2ccccc2)S(C)(=O)=O)cc1	i	1.6%	.
O=C(NCCc1ccccc1)C1CCN(S(=O)(=O)N2CCC3(CC2)OCCO3)CC1	i	1.8%	-0.05
O=C(Nc1ccc(F)c(F)c1)c1cc(S(=O)(=O)N2CCN(c3ccccn3)CC2)ccc1F	i	2.6%	.
CCN(CC)C(=O)CSc1nnc([C@@H](N)Cc2ccccc2)o1	i	0.3%	0.29
Cc1ccc(C2CC(C(F)(F)F)n3nc(C(=O)NCc4ccco4)cc3N2)cc1 (stereo unspecified)	i	2.9%	1.2
Cc1c(C(=O)O)oc2c1C(O)CCC2 (stereo unspecified)	i	-2.1%	1.4
O=C(Nc1cccnc1)c1ccc2c(c1)C(=O)N(Cc1cccnc1)C2=O	i	-0.4%	0.5
CCCCNC(=S)NNC(=O)C12CC3CC(CC(C3)C1)C2	i	-10%	.
Nn1c(SC/C=C/c2ccccc2)nnc1-c1ccncc1	i	4.6%	0.29
COCc1cc(=O)[nH]c(Nc2nc3ccc(C)cc3o2)n1	i	-8.3%	1.9
COc1nc(Nc2ccc3c(c2)OCO3)nc(OC)n1	i	-0.3%	0.64
CC(C)C(=O)Nc1ccc(-c2nc3cccnc3o2)cc1	6µM*	0.4%	0.07
O=C(CCC(=O)N1CCc2ccccc21)N1CCc2ccccc21	i	-0.9%	-1.2
CC(=O)C(=[N+]=[N-])C(=O)NCc1ccccc1	i	-0.1%	-1.6
OCCNc1ccc(Cl)cc1	i	-0.4%	-0.32
COc1ccccc1C1C(C(C)=O)=C(O)C(=O)N1CCc1ccccc1 (stereo unspecified)	i	-0.7%	-0.17
CCC(C)(C)NC(=O)C(c1cccn1C)N(Cc1ccccc1)C(=O)Cn1nnc2ccccc21 (stereo unspecified)	i	-7.1%	0.25
O=S1(=O)N=C(SCCO)c2ccccc21	i	13%	0.64
CCC(=O)N1CCCc2cc(S(=O)(=O)N3CCC(N4CCCCC4)CC3)ccc21	i	1.8%	0.64
Brc1ccc(OCCCN2CCOCC2)cc1	i	-2.7%	.
CCN1CCN(c2nc(-c3cccnc3)nc3ccccc23)CC1	i	-7.7%	-0.67
Cn1c(SCC(=O)NC(C)(C)C)nnc1-c1ccc(C(C)(C)C)cc1	i	-0.9%	0.39
Cc1ccc(-n2nnc3c(=O)n(Cc4cccc(C)c4)cnc32)cc1	i	1.6%	-0.93
Cc1ccccc1-c1nc(CN2CCC(C(=O)NCC3CCCO3)CC2)c(C)o1 (stereo unspecified)	i	1.9%	-1.3
Fc1ccc2[nH]c3c(N4CCN(C5CCCCC5)CC4)ncnc3c2c1	i	4.8%	-0.59
COc1ccc(-c2nnc(-c3cccnc3)o2)cc1OC	i	3.3%	-0.26
CN(Cc1ccccc1)c1nnc(N)s1	i	-2.5%	-0.89
CCOc1ccc(CCNC(=O)C2CCCN(c3nnc(-n4cccc4)s3)C2)cc1OCC (stereo unspecified)	i	1.9%	-0.66
Cn1c(=O)oc2cc(S(=O)(=O)NC3CCCc4ccccc43)ccc21 (stereo unspecified)	i	-2.2%	0.02
Cc1cc(C)nc(SCc2nnc(SCC(=O)N3CCCc4ccccc43)o2)n1	i	-1.2%	0.42
COC(=O)c1oc2ccc(Br)cc2c1NC(=O)CCN1CCOCC1	i	-3.9%	0.98
CC(=O)Nc1sc(C)c(C)c1CN1CCN(S(=O)(=O)c2ccccc2)CC1	i	-1.0%	-0.42
Cc1csc(NC(=O)CCN2C(=O)c3ccccc3S2(=O)=O)n1	i	3.4%	-0.39
O=C(c1cc(-c2ccc(O)cc2)on1)N1CCCc2ccccc21	i	2.6%	-0.64
CCc1ccc(NC(=O)c2ccc3ncsc3c2)cc1	i	-3.4%	.
CCOc1ccc(C2NC(=O)NC(C)=C2C(=O)OC)cc1C (stereo unspecified)	i	-3.1%	.
O=C(NCN1CCc2ccccc2C1)c1cnccn1	i	2.6%	0.4
Cc1ccc(-c2noc(=O)n2CC(=O)Nc2ccc(S(=O)(=O)NC3CC3)cc2)cc1	i	1.8%	.
O=C(c1coc2ccc(O)cc12)C1CC1	i	-4.4%	-0.79
O=C(CN(C1CCCCC1)S(=O)(=O)c1ccc(F)cc1)NCCCO	i	5.8%	-0.53
COc1ccccc1OC(=O)CN1C(=O)c2ccccc2C1=O	i	-6.1%	.
CC(C)(C)C(=O)CSc1nnc(-c2cccs2)n1CC1CCCO1 (stereo unspecified)	i	-1.8%	.
COCCNc1nc(SCc2ccccc2)nc2sc3c(c12)CCC3	i	-3.1%	.
COc1ccc(CCNC(=O)CCC2COc3ccccc3O2)cc1OC (stereo unspecified)	i	4.5%	.
Cc1cc(-c2ccccc2)nc(N2CCC(C(=O)NCc3ccccc3Cl)CC2)n1	i	-0.6%	.
CC1=C(C#N)C(Nc2ccc(Cl)cn2)(C(F)(F)F)C(=O)N1 (stereo unspecified)	i	-9.3%	.
Cc1cccc(N2C(=O)CC(Sc3nc(C)c4c(n3)CCCC4)C2=O)c1 (stereo unspecified)	i	-0.7%	0.01
CCCc1nc(-c2cc3ccc(C)cc3[nH]c2=O)no1	i	-1.3%	-0.88
CC(=O)Nc1ccc(S(=O)(=O)NC(CC(=O)NCCC2=CCCCC2)C(C)C)cc1 (stereo unspecified)	i	4.7%	1.6
Nc1cc(-c2ccco2)no1	i	-3.9%	-0.26

(list continues)
SMILES	MT1-MMP promoter	Hsc70 ATP site	WNV NS2B-NS3 inh
O=C(N/N=C/c1ccccc1Br)c1ccc(CSc2cccc3cccnc23)cc1	i	1.3%	.
C[C@H](NC(=O)NCCc1ccccc1)C(=O)O	i	-2.2%	0.46
COc1ccc(-c2nc3n(n2)C(c2cccnc2)C(C(N)=O)=C(C)N3)cc1 (stereo unspecified)	i	4.2%	0.27
COc1ccc(CCNS(=O)(=O)c2ccc(N3CCCC3=O)cc2)cc1	i	-0.3%	.
Cn1c(=O)c2c(nc(CN3CCC(C(N)=O)CC3)n2Cc2c(F)cccc2Cl)n(C)c1=O	i	-0.3%	1.5
O=C(Cn1cnc([N+](=O)[O-])c1)Nc1cc(Oc2ccc(Cl)cc2Cl)cc([N+](=O)[O-])c1	i	-1.2%	.
O=C(CSC1=NCCS1)N1CCN(c2ccc(Cl)cc2)CC1	i	0.2%	.
CCOC(=O)N1CCN(C(=O)CSCC(=O)Nc2nc(-c3ccc(Cl)s3)cs2)CC1	i	-5.3%	-1.1
CCOC(=O)c1ccc(NC(=O)C2CCCO2)cc1 (stereo unspecified)	i	-2.7%	-0.68
Cc1ccc(C)c(-n2c(Cc3cc(=O)[nH]c(=O)[nH]3)nnc2SC(C)C)c1	i	0.4%	0.43
O=C1CN(C(=O)C2CC2)c2ccccc2N1	i	-2.1%	.
O.O.O.O=S(=O)([O-])OC[C@H]1O[C@@H](O[C@]2(COS(=O)(=O)[O-])O[C@H](OS(=O)(=O)[O-])[C@@H](OS(=O)(=O)[O-])[C@@H]2OS(=O)(=O)[O-])[C@H](OS(=O)(=O)[O-])[C@@H](OS(=O)(=O)[O-])[C@@H]1OS(=O)(=O)[O-].[Al]	i	-1.9%	-0.72
CCC(=O)N(Cc1cc2c(C)ccc(C)c2[nH]c1=O)C1CCCCC1	i	2.2%	0.63
C/C(=N\O)C(C)/[N+]([O-])=C/c1nc(C)c(C)n1O (stereo unspecified)	i	4.1%	-0.73
O=c1[nH]c2cc(Cl)ccc2n1-c1ccccc1	i	-7.1%	-0.75

The order is random. Share with any hit: about 0.77%.
